TRPV1 potentiator – HTS Assay for Compounds that Act as Potentiators of the Vanilloid Receptor 1; 0.02% of 320,000 active; potentiation, % at 8.33 µM; TRPV1-expressing cells, Fluo-8 calcium influx, capsaicin EC20 potentiation; host cell line not named in the record; control for the full effect not named in the record; Transient receptor potential cation channel subfamily V member 1 (Homo sapiens), Q8NER1; active means potentiation above 80%; inconclusive means 30% to 80%; inactive means below 30%; further: 0% is about no effect
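Cells expressing TRPV1 were dye-loaded with Fluo-8 and read kinetically: 10 s baseline, 3 min after compound (agonist portion), then 2 min after EC20 capsaicin (allosteric enhancer portion). Calcium-bound dye fluorescence at 480/520 nm.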
CtBP-E1A inh – qHTS Assay for Inhibitors of the CtBP/E1A Interaction; CtBP / adenovirus E1A interaction (AlphaScreen); AlphaScreen GST-E1A/His-CtBP binding, 1536-well; hits give low values; control for the full effect not named in the record; activity change, % (no concentration beside the values); 0.49% of 340,000 active; in the data active means activity change below about -65%; inconclusive means about -30% to -65%; inactive means above about -30%; further: on the % scale 0 is the no-effect control and ±100 the full control effect; compound concentration not given in the record
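Homogeneous bead-based format: GST-tagged E1A captured on glutathione donor beads, His-tagged CtBP on nickel acceptor beads; compounds precede bead addition by 2 h at 37 °C.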
PINK1 expr mod – A Quantitative High throughput Screen to Identify Chemical Modulators of PINK1 Expression; PINK1 immunofluorescence, high-content cytometry, 24 h; Potency, µM (top dose mostly 76.6 µM), inactives show at the highest dose activation (PINK1 increase), usual class: activators; 0.2% of 410,000 active; AID 624263, 2012; active = well fitted activation curve with a large enough effect; inconclusive = small, poorly fitted or top-dose-only effect; inactive = flat fitted curve, though single readings scatter; cell line not stated here;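 further: potency means the concentration at half of the fitted maximal effect; % of control where 0% means no effect; nearly all actives have a fitted effect of over 65% in size; a mitochondrial uncoupler was the plate control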
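A stable cell line was treated with compounds at 5 concentrations for 24 hours, with CCCP as control. PINK1 levels and mitochondrial localization were measured by immunofluorescence with mitochondrial, cell and nuclear markers after fixation, read by laser-scanning cytometry.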
D2 potentiator – Beta-Arrestin HTS for Positive Allosteric Modulators of the Human D2 Dopamine Receptor: Potentiators; DiscoveRx D2 beta-arrestin cells, luminescence, 90 min; 100% = 57 uM dopamine signal; 0.23% of 360,000 active; D(2) dopamine receptor (Homo sapiens), P14416; potentiation, % (no concentration beside the values); active = potentiation of 50% or more; inconclusive = 30% to 50%; inactive = 30% or less;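 further: compound concentration not given in the record; tested on top of an EC20 dose of dopamine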
Target sequence (P14416 whole entry, looked up): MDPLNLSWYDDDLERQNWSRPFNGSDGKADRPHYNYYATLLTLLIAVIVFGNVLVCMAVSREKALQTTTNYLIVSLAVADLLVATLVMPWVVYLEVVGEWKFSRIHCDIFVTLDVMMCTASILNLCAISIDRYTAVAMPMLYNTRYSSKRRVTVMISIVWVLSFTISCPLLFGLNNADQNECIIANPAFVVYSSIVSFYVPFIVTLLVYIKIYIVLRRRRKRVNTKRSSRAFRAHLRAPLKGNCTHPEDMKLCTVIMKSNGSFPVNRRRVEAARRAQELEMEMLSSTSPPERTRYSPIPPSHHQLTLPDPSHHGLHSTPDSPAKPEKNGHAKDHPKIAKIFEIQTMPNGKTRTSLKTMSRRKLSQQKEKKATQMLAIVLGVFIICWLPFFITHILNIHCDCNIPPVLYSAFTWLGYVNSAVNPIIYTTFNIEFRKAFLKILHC
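PathHunter D2 cells, attached overnight at 37 deg C, received compound in DMSO plus dopamine at EC20 (50 nM final) for 90 min at 37 deg C. Beta-arrestin recruitment was read as luminescence after 1 h with detection reagent at ambient temperature.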
Sfp inh – qHTS Assay for Inhibitors of Bacillus subtilis Sfp phosphopantetheinyl transferase (PPTase); Biochemical Sfp PPTase activity, qHTS; 3.5% of 310,000 active; AID 1490, 2009; 4'-phosphopantetheinyl transferase ffp (Bacillus subtilis), Q9F4F7; Potency, µM, without a hit: max response, negative = inhibition, usual class: inhibitors; active means well fitted inhibition curve with a large enough effect; inconclusive means small, poorly fitted or top-dose-only effect, or another doubt; inactive means no such curve, though single readings can be large or run the other way;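 further: the enzyme is Sfp with the accession as filed and its product quenches rhodamine fluorescence; potency means the concentration at half of the fitted maximal effect; 0% = enzyme reaction without inhibitor and -100% = no enzyme wells; top concentration of the series not given in the record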
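With Hepes-Na pH 7.6 buffer containing 10 mM MgCl2, Sfp (15 nM) modified BHQ-2-YbbR (12.5 uM) using rhodamine-CoA (5 uM). Two reads 30 minutes apart at 525/598 nm yielded each well's rate.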
D2 agonist – Beta-Arrestin HTS for Positive Allosteric Modulators of the Human D2 Dopamine Receptor: Agonists. D(2) dopamine receptor (Homo sapiens), P14416. DiscoveRx PathHunter D2 beta-arrestin, luminescence, 90 min; 100% = 57 uM dopamine signal. activation, % (test concentration not listed). 0.084% of 360,000 active. AID 624465, 2012; in the data active = activation above about 40%; inconclusive = about 15% to 40%; inactive = below about 15%; further: compound concentration not given in the record; the text of the record calls up to 30% inactive
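Agonist mode: compounds alone added to overnight-plated D2 PathHunter cells for 90 min at 37 C, with 57 uM final dopamine (EC100) defining full response. Beta-arrestin recruitment detected by chemiluminescent reagent, read after 1 h at ambient temperature.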
Six1-Eya2 inh – qHTS Assay for Inhibitors of the Six1/Eya2 Interaction; AID 651725, 2012; activity change, % (no concentration beside the values); 0.56% of 360,000 active; AlphaScreen GST-Six1/His-Eya2 binding, biochemical; hits give low values; control for the full effect not named in the record; in the data active = activity change below about -65%; inconclusive = about -30% to -65%; inactive = above about -30%; further: on the % scale 0 is the no-effect control and ±100 the full control effect; compound concentration not given in the record
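Compounds are tested against tagged Six1 and Eya2 proteins bridged by glutathione donor and nickel acceptor beads; after a one-hour incubation at 37 °C without light, AlphaScreen emission is recorded.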
* = called active by the depositor; ? = inconclusive; · = no result given; [ ] = another dose, or the depositor's remark.

SMILES	D2 potentiator	TRPV1 potentiator	Sfp inh	PINK1 expr mod	CtBP-E1A inh	Six1-Eya2 inh	D2 agonist
CCC(C)(C)NC(=O)C(c1ccc(OC)cc1)N(C(=O)CCC(=O)Nc1cc(C)on1)c1cc(OC)ccc1OC (stereo unspecified)	2	13	3%	6.7%	28	2	1.3
CC(C)(C)C1CCC(C(=O)Nc2ccc(N3CCOCC3)cc2N2CCOCC2)CC1 (stereo unspecified)	-5	-10	·	2.2%	·	-4	-4.2
CCCN1C(=O)N(C)C(N(O)C(=O)NC)C1(C)C (stereo unspecified)	-2	19	5%	0.0%	7	3	-0.2
Cc1cccc(NC(=O)CN2C(=O)N/C(=C\c3ccc(N4CCOCC4)cc3)C2=O)c1	19	8	-11%	11%	-3	0	-3.6
CC(C)CNC1CCS(=O)(=O)C1 (stereo unspecified)	-6	0	3%	0.4%	15	6	1.1
OCc1nnn(-c2cccc(C(F)(F)F)c2)c1CO	2	·	9%	1.0%	1	-2	0.8
O=C(c1ccc(NS(=O)(=O)c2ccc(Cl)c(Cl)c2)cc1)N1CCOCC1	5	18	·	0.1%	2	-1	-3.1
COc1ccccc1N(C)S(=O)(=O)c1ccc(Cl)c(C(=O)NCC2(N(C)C)CCCCC2)c1	0	15	·	0.9%	-8	5	-5.0
Cc1ccccc1Cc1c(C)nc2nc(SCC(=O)NCCCN3CCCCC3)nn2c1C	-3	-5	-14%	1.1%	-21	-11	4.1
CC(=O)N1CCOc2ccc(S(=O)(=O)Nc3ccc(Cl)cn3)cc21	-10	-8	22%	-0.7%	0	4	-1.4
CCn1cc(Br)c(C(=O)Nc2ccc(F)cc2F)n1	-1	?	17%	0.6%	3	7	-1.5
O=C(NNC(=S)Nc1ccc(Br)cc1)c1ccccc1Br	-37	-13	-11%	8.9%	-5	3	-10

(listing goes on)
SMILES	D2 potentiator	TRPV1 potentiator	Sfp inh	PINK1 expr mod	CtBP-E1A inh	Six1-Eya2 inh	D2 agonist
COc1ccc(CN2C[C@@H](CO)O[C@@H](n3cnc4c(NCCCO)ncnc43)C2)cc1	-8	·	·	-0.5%	5	5	-3.5
CN(C(=O)COC(=O)COc1ccc(Cl)cc1Cl)c1c(N)n(Cc2ccccc2)c(=O)[nH]c1=O	-14	18	·	-0.1%	10	1	-6.0
O=C(CSc1nc2ccc(Nc3nc(N4CCCC4)nc(N4CCCC4)n3)cc2s1)NCc1ccco1	-1	-6	?	-0.3%	7	-15	0.1
Cc1nnc(-n2ncc(C#N)c2N)c2nn(-c3cccc(Cl)c3)c(C)c12	-14	2	-12%	·	-6	-1	-0.7
COc1ccc(N(CC(=O)N2CCOCC2)S(C)(=O)=O)cc1Cl	-4	4	18%	-1.0%	6	-1	-3.8
O=C(CSc1nc2ccccc2o1)c1ccccc1	1	-17	-13%	-2.1%	10	37	3.5
O=C1c2ccccc2[C@@H]2C[C@@H](O)[C@H](Nc3ccccc3)CCN12	·	·	·	-0.8%	-1	0	-1.3
C[C@@H]1CCCCO[C@@H](CN(C)Cc2ccc(Cl)c(Cl)c2)[C@@H](C)CN([C@H](C)CO)C(=O)c2cc(NC(=O)CCC(F)(F)F)ccc2O1	0	·	·	0.4%	-8	-7	-5.5
CN(CCOc1ccccc1)C(=O)C1CCC(=O)N(CCc2ccc(Cl)cc2)C1 (stereo unspecified)	-15	1	5%	-0.2%	10	1	-5.7
Cc1ccc(C2CC(=O)C=C(Nc3ccc(Cl)cc3)C2)cc1 (stereo unspecified)	-8	-7	2%	7.1%	18	3	-1.5
Cc1ccnc(NS(=O)(=O)c2ccc(NC(=O)CCc3ccccc3)cc2)n1	-5	23	8%	-1.6%	-12	-7	1.3
Clc1ccc(-[n+]2c(-c3cccc(Br)c3)[nH]c3nc4ccccc4nc32)cc1	-3	18	-8%	-0.9%	-3	-8	-0.3

New compounds follow.
SMILES	D2 potentiator	TRPV1 potentiator	Sfp inh	PINK1 expr mod	CtBP-E1A inh	Six1-Eya2 inh	D2 agonist
COc1ccc(CS(=O)(=O)CC(C)(O)c2ccccc2Cl)cc1 (stereo unspecified)	-14	-16	9%	1.8%	·	0	6.9
CC(=O)N1CCN(c2nnc(-c3ccc(C)cc3)c3ccccc23)CC1	0	-12	-11%	5.3%	3	-7	-0.5
O=S(=O)(Nc1nc2ccc(Cl)cc2s1)c1cccs1	-3	-13	6%	0.6%	1	10	-2.4
CCCSc1ccc([C@H]2N[C@@](C)(C(=O)OC)[C@H]3C(=O)N(C)C(=O)[C@@H]23)cc1OC	-11	-1	·	0.8%	7	3	-0.6
Cc1cccc(Nc2nc(N)c(C#N)c(CC#N)c2C#N)c1	-5	-10	2%	1.4%	10	-4	3.8
CCOc1cc(N2CCOCC2)c(OCC)cc1NC(=O)c1cc(S(=O)(=O)N2CCOCC2)ccc1F	-4	·	·	6.9%	3	-2	1.0
COCC(C)N1CC(O)=C(c2nc(-c3ccc(Cl)cc3)cs2)C1=N (stereo unspecified)	-13	-6	18%	9.4%	4	-2	-0.1
CC(=O)Nc1ccc2sc(NC(=O)CN3CCOCC3)nc2c1	1	1	14%	5.2%	7	1	-2.2
O=C(C1CCCC1)N1CCCC(Nc2ccc(F)cc2)C1 (stereo unspecified)	-6	-5	14%	1.1%	4	1	1.6
Cc1cc(C)c(C)c(S(=O)(=O)N2CCN(Cc3nc4ccccc4[nH]3)CC2)c1C	-2	4	12%	-6.2%[38.3 µM]	-2	-1	3.9
O=C(CSc1ccc2ccccc2c1)NCc1cccs1	-6	-14	-12%	-0.3%	5	1	-4.0
COc1cc(CCN(C(C)=O)C2C(=O)Nc3ccccc3N=C2c2ccc3c(c2)OCO3)cc(OC)c1 (stereo unspecified)	0	·	·	4.3%	-1	-11	-2.3

More structures:
SMILES	D2 potentiator	TRPV1 potentiator	Sfp inh	PINK1 expr mod	CtBP-E1A inh	Six1-Eya2 inh	D2 agonist
Cc1sc(NC(=O)CSc2nnc(CCNC(=O)c3cccs3)n2C)nc1-c1ccccc1	-2	6	15%	1.9%[38.3 µM]	5	0	-1.6
CCOC(=O)C1(CCOC)CCN(Cc2ccccc2-c2ccco2)CC1	-5	-3	10%	6.4%	-3	-5	-3.3
Cn1c(=O)n(C)c2cc([N+](=O)[O-])c(N3CCN(S(=O)(=O)c4ccc5ccccc5c4)CC3)cc21	2	14	-4%	2.2%[38.3 µM]	-2	0	-0.6
CCc1cc(Cn2nc(-c3ccccc3)cc2C(=O)O)on1	-11	29	·	-1.4%	6	1	-3.4
Cc1ccc2c(c1)C(c1ccccc1)N(C(=O)c1cc3ccccc3oc1=O)CC(=O)N2 (stereo unspecified)	-9	-15	2%	0.3%	-1	-1	-9.3
COc1ccc(OCCn2cc(/C=C(\C#N)C(=O)NCc3ccco3)c3ccccc32)cc1	-3	?	12%	9.8%	1	4	-0.9
NNC(=O)C1COc2cc3ccccc3cc2O1 (stereo unspecified)	-2	?	-7%	3.8%	-2	3	-1.5
CCN1CCN(S(=O)(=O)c2ccc(Cl)c(C(=O)Nc3nnc(CC(C)C)s3)c2)CC1	7	-1	14%	0.7%	-1	-8	-2.6
Cc1c(C)n2c3c(cccc13)CC2	-12	3	-2%	-0.4%	-3	2	3.8
COC(=O)/C(=C(O)\C=C\c1ccccc1[N+](=O)[O-])c1nc2ccccc2[nH]1	-2	10	16%	5.3%	-29	-26	-1.4
CC(C)CC(NC(N)=O)C(=O)Nc1ccc(Oc2ccccc2)cc1 (stereo unspecified)	-8	24	-11%	2.4%	2	6	0.2
Cc1cc(C2=NNC(=NC3CCCCC3)SC2)c(C)n1-c1c(C)n(C)n(-c2ccccc2)c1=O	-8	-21	?	0.5%	·	-2	-1.6

Random excerpt: 2 records from the list
SMILES	D2 potentiator	TRPV1 potentiator	Sfp inh	PINK1 expr mod	CtBP-E1A inh	Six1-Eya2 inh	D2 agonist
CC(C)(C)C1CCC(C(=O)Nc2ccc(N3CCOCC3)cc2N2CCOCC2)CC1 (stereo unspecified)	-5	-10	·	2.2%	·	-4	-4.2
CN(C(=O)COC(=O)COc1ccc(Cl)cc1Cl)c1c(N)n(Cc2ccccc2)c(=O)[nH]c1=O	-14	18	·	-0.1%	10	1	-6.0

Continued:
SMILES	D2 potentiator	TRPV1 potentiator	Sfp inh	PINK1 expr mod	CtBP-E1A inh	Six1-Eya2 inh	D2 agonist
C=CCNC(=O)c1onc(CSc2cccc3ccccc23)c1C(=O)O	-23	2	11%	-0.8%	8	-11	1.1
Cn1c(=O)[nH]c(=O)c2c1nc(CN1CCOCC1)n2CCc1ccccc1	-2	-1	3%	1.8%[38.3 µM]	2	5	-0.1
COC(=O)c1ccccc1NC(=O)C1CCN(S(=O)(=O)c2cc(OC)ccc2OC)CC1	-5	-16	1%	-0.6%	-14	-2	0.7
Cc1ccc(NC(=O)CSc2nnc3ccccn23)cc1S(=O)(=O)N1CCOCC1	-1	11	13%	-0.1%	4	1	-1.2
O=C(NCCO)NC(=S)c1ccccc1	-12	3	-4%	3.8%	2	1	-2.6
CN(C)c1ccc(/C=N\S(=O)(=O)c2ccccc2)cc1	-13	4	9%	4.2%	2	0	-1.5
COC(=O)CN1C(=S)N(c2ccc(OC)cc2)C(=O)/C1=C/c1ccc(OC)cc1	0	-1	-2%	1.6%	-2	-11	-0.9
CC(C)n1nc(C(=O)Nc2ccc3c(c2)OCO3)c2ccccc2c1=O	-1	-24	·	1.4%	-23	-21	-1.1
COc1ccc(-c2nnc(SCC(=O)c3cccs3)o2)cc1	-9	-3	-12%	1.0%	0	-10	1.2
COc1ccc([N+](=O)[O-])cc1/C=N/Nc1nc(N2CCCCC2)nc(N2CCCCC2)n1	-3	?	13%	1.6%	-19	0	3.2
N#Cc1cccc(C(=O)N(CCc2ccccc2)Cc2cccs2)c1	-5	-9	8%	0.7%	11	4	3.0
CC(C)c1ccccc1NC(=O)COC(=O)c1cccnc1	-1	2	13%	-1.4%	3	21	3.8
Cc1ccc(S(=O)(=O)n2nc(-c3cccnc3)nc2N)cc1	-3	-4	14%	-1.0%[38.3 µM]	2	2	-1.4
CN1CCN(C(N)=NC(=O)c2ccccc2)CC1	-5	-5	-13%	0.4%	-12	-1	-1.2
CCc1nc2c(OCc3ccccc3C(=O)OC)cccn2c1N(C)C(=O)c1cccc(OC)c1	1	·	·	0.8%	-7	-11	3.8

From PubChem
